RecA intein inh: blocks M. tuberculosis RecA intein splicing; cell-free RecA intein splicing, fluorescence; inhibition, %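 (about 9 µM by stock and volumes)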; P9WHJ3; actives 0.75% (n = 290,000); in the data active = inhibition above about 30%; inconclusive = no clear call, values can overlap the other calls;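 note: 0% = vehicle wells and 100% = reference inhibitor control wells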
Target sequence (P9WHJ3 whole entry, looked up): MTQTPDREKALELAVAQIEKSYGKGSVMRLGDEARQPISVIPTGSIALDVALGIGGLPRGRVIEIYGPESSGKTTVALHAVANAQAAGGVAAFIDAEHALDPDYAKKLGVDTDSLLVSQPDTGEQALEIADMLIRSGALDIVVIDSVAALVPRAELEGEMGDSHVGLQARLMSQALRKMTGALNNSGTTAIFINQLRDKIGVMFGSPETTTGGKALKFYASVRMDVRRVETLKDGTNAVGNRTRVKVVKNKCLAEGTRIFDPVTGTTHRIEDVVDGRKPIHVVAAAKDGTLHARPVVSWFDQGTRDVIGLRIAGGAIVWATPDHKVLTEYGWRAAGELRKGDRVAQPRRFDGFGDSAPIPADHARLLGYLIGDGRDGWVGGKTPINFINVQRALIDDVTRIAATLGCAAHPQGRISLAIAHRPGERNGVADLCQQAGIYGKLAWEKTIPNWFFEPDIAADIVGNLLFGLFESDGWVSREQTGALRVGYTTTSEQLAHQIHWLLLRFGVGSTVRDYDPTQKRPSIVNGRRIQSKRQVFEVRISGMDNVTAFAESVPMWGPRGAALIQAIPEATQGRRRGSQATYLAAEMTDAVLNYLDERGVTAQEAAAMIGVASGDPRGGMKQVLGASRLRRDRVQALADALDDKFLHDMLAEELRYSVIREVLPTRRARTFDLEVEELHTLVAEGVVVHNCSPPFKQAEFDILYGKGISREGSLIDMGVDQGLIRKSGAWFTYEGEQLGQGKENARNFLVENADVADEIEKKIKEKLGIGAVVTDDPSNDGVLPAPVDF
YopH inh: YopH (Yersinia) phosphatase inhibition; AID 898; inhibition, %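 (about 10 µM by stock and volumes)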; actives 0.16% (n = 140,000); fluorescence Ex485/Em525;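 active = inhibition of 50% or more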;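 note: controls were vehicle for no effect and minimum signal wells for full effect; inactives centre near -20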
Arbovirus anti: arbovirus infection inhibition; arbovirus infection cell-based antiviral screen; inhibition, % at 10 µM; AID 1251; actives 0.37% (n = 200,000);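 active = inhibition from about 30%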;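 note: bluetongue infection of BSR cells; cell survival read as ATP light after 72 h; 0% = infected wells without compound and 100% = uninfected wells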
Mtb H37Rv: M. tuberculosis H37Rv growth inhibitors, H37Rv strain (AID 1626); inhibition, % at 10 µM, or IC50 in µM where a hit was titrated; actives 0.95% (n = 220,000); M. tuberculosis H37Rv growth inhibition; higher % means a stronger effect;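 active = confirmed in a dose series; inconclusive = inhibition above 80% but not taken into the dose series; inactive = below 80% or under 30% at every dose of the series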;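 note: bacteria incubated seven days before Alamar blue readout; 0% = bacteria only wells and 100% = bacteria with antibiotic wells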
Mtb betalactam: beta-lactam sensitization of Mtb H37Rv. M. tuberculosis H37Rv growth with meropenem, percent inhibition; hits of this screen are not shown here. inhibition, % at 25 µM. actives 0.27% (n = 330,000). AID 434955;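 active = about 74% or more and at least 40 points above the plate without the antibiotic, then above 30% in a dose series; inconclusive = first-round hits that could not be retested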;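 note: growth measured after seven days incubation then overnight dye step; 0% = bacteria only wells and 100% = bacteria with antibiotic; twin plates without the antibiotic show which effects depend on it; some results filed as inactive read as strong as hits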
Arbovirus anti repeat: second read-out of Arbovirus anti, no call of its own (marks repeat the call); inhibition, %; measured here: 10K subset replicate screen; many hits read low in the repeat;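 first of two repeat runs on a subset; 0% = infected and 100% = uninfected wells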
Starred values were filed as active, the others as inactive; ? = inconclusive; nt = not tested or not shown. A portion of the library. The share of hits here may be higher or lower than overall.

SMILES	RecA intein inh	YopH inh	Arbovirus anti	Mtb H37Rv	Mtb betalactam	others
NS(=O)(=O)c1ccc(CCNC(=O)c2cc([N+](=O)[O-])ccc2N2CCCCC2)cc1	0.4	nt	nt	nt	3
COc1cccc(-c2ccc(=O)n(CC(=O)NCCN3CCOCC3)n2)c1	-0.6	-22	0	-4%	-3
CCOC(=O)C1CCN(CC(=O)Nc2c(C(=O)OC)[nH]c3ccc(Cl)cc23)CC1	0.5	-13	-7	2%	62
COc1cccc(/C=N/NC(=O)CC2C(=O)NN=C2C)c1O (configuration not stated)	-5.7	-25	-19	-2%	-2
O=C(NNC1=Nc2cc([N+](=O)[O-])ccc2OC1)c1ccccc1Cl	-2.2	nt	nt	nt	-6
CN(CC(=O)Nc1c(Cl)cccc1Cl)C(=O)C1CSC2(C)CCC(=O)N12 (configuration not stated)	0.8	nt	nt	nt	-2
O=C(O)CC(Sc1n[nH]c(=S)s1)C(=O)O (configuration not stated)	-1.8	nt	nt	12%	6
COc1ccc(NC(=S)NCc2ccccn2)cc1OC	-0.9	nt	-6	-2%	-2
C#CC[N+](CC)(CC)CC#Cc1cccc(Cl)c1	0.3	-35	3	-1%	-9
COc1ccccc1/C=C(/NC(=O)c1ccccc1)C(=O)NCCN1CCOCC1	-1.9	nt	nt	nt	2
CC(=O)N1C(C(=O)O)CSC1c1ccc(C)cc1 (configuration not stated)	5.6	-54	1	1%	1	Arbovirus anti repeat=2
CCc1sc(C(=O)Nc2ccc(NC(C)=O)cc2)cc1C	-0.4	-16	-8	nt	2
Cc1c(C(=O)N2CCN(C)CC2)oc2ccc(S(=O)(=O)N3CCOCC3)cc12	nt	-30	7	-5%	-1
CC(=Nc1cc(C(=O)c2ccccc2)ccc1N)C1=C(O)CC(C)(C)CC1=O	-1.1	nt	-11	-6%	1
O=C(CCCCCNc1nc(=S)[nH]c2ccccc12)NCCc1ccccc1	0.2	-10	0	6%	2
O=C(c1nc2ccc(Cl)cn2c1CN1CCC(CO)CC1)N1CCc2ccccc2C1	2.6	nt	nt	nt	?
Cc1ccc(/C=N/NC(=O)Cc2ccc(Cl)cc2)c(O)c1	-0.6	nt	nt	nt	-2
CC(C)(C)OC(=O)NCCCC[C@H](NC(=O)c1nc[nH]c1C(=O)N1CCN(C(=O)OC(C)(C)C)CC1)C(=O)OC(C)(C)C	2.4	nt	1	-5%	5
Cc1c(NC(=S)N/N=C/c2ccc(O)cc2)c(=O)n(-c2ccccc2)n1C	-0.3	-45	-3	-3%	-7
COc1ccccc1NC(=O)C(=O)NNS(=O)(=O)c1ccc2ccccc2c1	-2.1	nt	nt	7%	20
Cc1cccc2c1CC(C)(C)NC2=C(C#N)C#N	3.3	-8	-4	4%	4
COc1ccccc1N=C(C)C1=C(O)CSC1=O	2.6	-17	-2	-6%	-2	Arbovirus anti repeat=2
COC(=O)c1c(C)[nH]c(C(=O)OCc2ccc(F)cc2)c1C	nt	-55	-1	9%	0
O=C(NCCCN1CCCC1=O)c1cccc(N2CCCC2=O)c1	3.3	-18	8	-16%	-12

Brought forward from above: seven compounds, followed by the next part.
SMILES	RecA intein inh	YopH inh	Arbovirus anti	Mtb H37Rv	Mtb betalactam	others
CC(C)(C)OC(=O)NCCCC[C@H](NC(=O)c1nc[nH]c1C(=O)N1CCN(C(=O)OC(C)(C)C)CC1)C(=O)OC(C)(C)C	2.4	nt	1	-5%	5
Cc1c(NC(=S)N/N=C/c2ccc(O)cc2)c(=O)n(-c2ccccc2)n1C	-0.3	-45	-3	-3%	-7
COc1ccccc1NC(=O)C(=O)NNS(=O)(=O)c1ccc2ccccc2c1	-2.1	nt	nt	7%	20
Cc1cccc2c1CC(C)(C)NC2=C(C#N)C#N	3.3	-8	-4	4%	4
COc1ccccc1N=C(C)C1=C(O)CSC1=O	2.6	-17	-2	-6%	-2	Arbovirus anti repeat=2
COC(=O)c1c(C)[nH]c(C(=O)OCc2ccc(F)cc2)c1C	nt	-55	-1	9%	0
O=C(NCCCN1CCCC1=O)c1cccc(N2CCCC2=O)c1	3.3	-18	8	-16%	-12
O=C(NCCc1ccccc1)C(=O)Nc1ccc2c(c1)OCCO2	1.9	nt	-19	2%	-2
COc1cccc(NC(=O)C(c2ccccc2)N2CCCC2)c1 (configuration not stated)	2.7	nt	0	-5%	-4
N#CC1=C(N)Oc2cc(N)ccc2C1c1cccc(F)c1 (configuration not stated)	-5.0	nt	nt	nt	1
Cc1cc(C(c2ccc(C)o2)c2ccc(C)o2)c(O)c([N+](=O)[O-])c1	15	-10	-1	-1%	-1
CCOC(=O)N1CCC(NC(=O)C2CCN(C(=O)N3CC(C)Oc4ccccc43)CC2)CC1 (configuration not stated)	3.9	-23	-5	-11%	-14
CC(=NCc1ccco1)c1c(O)n(-c2ccc(Cl)cc2)c(=O)[nH]c1=O	-3.5	nt	nt	3%	-1
O=C(Cc1c(F)cccc1Cl)Nc1nccs1	-0.8	nt	nt	nt	-4
O=C(Nc1nnc(-c2ccccc2Cl)o1)c1cc2cc([N+](=O)[O-])ccc2s1	nt	-2	-4	4%	nt
c1ccc2nc(SCc3cn4ccccc4n3)cnc2c1	2.1	nt	-2	22%	-2
Cc1ccc(OCCN(C)C(=O)CC2C(=O)NCCN2CC(C)(C)C)cc1 (configuration not stated)	1.8	nt	0	-7%	-3
COC(=O)c1c(NC(NC(=O)C(C)(C)C)C(Cl)(Cl)Cl)sc2c1CCC2 (configuration not stated)	2.2	-20	-5	2%	-9
CC(=O)Nc1sc2c(c1C#N)CCC2	-0.3	nt	1	-2%	9
CN(CC(=O)Nc1c(Cl)cccc1Cl)C(=O)c1ccc(-n2cncn2)c([N+](=O)[O-])c1	-2.2	nt	nt	nt	-6
Cc1cccc(CCNC(=O)CCS(=O)(=O)c2ccc3nc(C)sc3c2)c1	1.7	nt	nt	nt	-4
Cc1ccc2c(c1)N(C(C)C(=O)NCc1ccccn1)C(=O)CO2 (configuration not stated)	-4.2	nt	nt	0%	7
Cc1sc2ncnc(SCC(=O)N(C)C3CCS(=O)(=O)C3)c2c1C (configuration not stated)	-1.4	nt	2	0%	-9
CCOC(=O)c1ccc(N/C(=N\S(=O)(=O)c2ccc(F)cc2F)c2ccccc2)cc1	6.8	-29	-5	-1%	2
O=C(c1cc2cc(F)ccc2[nH]1)N1CCc2ccccc21	0.3	nt	nt	nt	7
Cc1cc(OCC(O)CNC(C)c2ccccc2)ccc1C(C)C (configuration not stated)	-0.2	nt	nt	nt	13
CCc1nc(C(N)=O)c2[nH]c(=O)n(-c3ccc(OC)cc3OC)c2n1	-2.0	nt	nt	nt	?
CC(C)CC(C(=O)OCC(=O)c1c(N)n(C)c(=O)n(C)c1=O)N1C(=O)C2CC=CCC2C1=O (configuration not stated)	-0.8	nt	3	3%	18
CC(OC(=O)C1=Cc2ccccc2OC1)C(=O)NCc1ccco1 (configuration not stated)	nt	nt	2	0%	0
O=C(CSc1nnc(-c2cccs2)n1-c1cccc(Cl)c1)c1cccc2c1OCCO2	-3.8	-23	5	-3%	2
NC(=O)CNc1ncc(C(F)(F)F)cc1Cl	0.6	nt	24	8%	-2

Gathered by group, the entries above containing a furan ring, fused or not.
SMILES	RecA intein inh	YopH inh	Arbovirus anti	Mtb H37Rv	Mtb betalactam	others
Cc1c(C(=O)N2CCN(C)CC2)oc2ccc(S(=O)(=O)N3CCOCC3)cc12	nt	-30	7	-5%	-1
Cc1cc(C(c2ccc(C)o2)c2ccc(C)o2)c(O)c([N+](=O)[O-])c1	15	-10	-1	-1%	-1
CC(=NCc1ccco1)c1c(O)n(-c2ccc(Cl)cc2)c(=O)[nH]c1=O	-3.5	nt	nt	3%	-1
CC(OC(=O)C1=Cc2ccccc2OC1)C(=O)NCc1ccco1 (configuration not stated)	nt	nt	2	0%	0

(more compounds)
SMILES	RecA intein inh	YopH inh	Arbovirus anti	Mtb H37Rv	Mtb betalactam	others
O=C(NCCc1cccc(Cl)c1)C1CCC(=O)N(Cc2ccc(Cl)cc2)C1 (configuration not stated)	2.5	nt	nt	nt	8
CC1CCN(c2c([N+](=O)[O-])c(=O)oc3ccccc23)CC1	2.5	-24	1	-6%	2
O=C(O)C1C2C=CC(C2)C1C(=O)NCCc1ccccc1 (configuration not stated)	-1.1	7	12	-15%	-1
CCOC(=O)c1c(C)n(-c2ccc(OC)cc2)c2ccc(O)c(CN(C)C)c12	1.9	nt	nt	12%	69
O=C(CC1SC(=Nc2ccccc2)N(Cc2ccccn2)C1=O)Nc1ccc(Br)cc1 (configuration not stated)	2.3	-13	-23	46%	80
CCOc1ccc(CCNC(=O)COC(=O)c2ccco2)cc1OCC	2.7	-17	-1	-1%	-5
Cc1ccc(NS(=O)(=O)c2ccccc2Cl)c2c1CC(C)(C)O2	5.9	-22	-3	-8%	1
COC(=O)c1c(NC(=O)c2ccc(S(=O)(=O)N3CCOCC3)cc2)sc2c1CCN(C)C2	nt	-15	-1	2%	1
CN(Cc1ccccc1)C(=O)C1CCCN1S(=O)(=O)c1ccc2c(c1)n(C)c(=O)c(=O)n2C (configuration not stated)	0.4	nt	nt	-7%	-4
CCCCc1c(C)c(C#N)c2[nH]c3ccccc3n2c1=O	-0.8	-53	3	23µM*	99
COc1ccc(-c2nnc(SCC(=O)Nc3ccc(Cl)cc3)n2C)cc1	4.8	-19	0	-5%	3
Cc1c(=O)n(OCc2ccccc2)c2ccccc2[n+]1[O-]	-2.3	-26	-1	-2%	-8	Arbovirus anti repeat=5
Cc1ccc(N/N=C(\C#N)C(=O)c2ccsc2)cc1	14	nt	nt	-5%	-7
O=C(NCCc1cccnc1)C1CCC(=O)N(Cc2cccc(C(F)(F)F)c2)C1 (configuration not stated)	1.8	nt	nt	nt	?
Cc1cccc(OCC(=O)NC(C)C(=O)N/N=C/c2c(OCc3ccccc3)ccc3ccccc23)c1 (configuration not stated)	0.8	-20	-33	5%	-6
CCCCN(C)CCCNC(=O)C1CC(=O)N(Cc2ccc(OC)cc2)C1 (configuration not stated)	-0.8	-8	7	-3%	-5
COc1cc(OC)c(C(=O)OCC(=O)Nc2cc(C)on2)cc1OC	-2.2	nt	6	-2%	5
Cc1cccc(OCC(=O)NNC(=O)C2CCN(c3ncnc4sc(C)c(C)c34)CC2)c1	3.3	nt	nt	nt	-4
Cc1nnc2n(c1=O)C(CS(=O)(=O)c1ccc3ccccc3c1)CS2 (configuration not stated)	1.1	nt	6	2%	-9
CC/C(=N/OC(=O)c1cccc(C)c1)C(=O)c1cccs1	3.0	nt	2	7%	1
CCCS(=O)(=O)N1CCCC(C(=O)NCc2ccc3c(c2)OCO3)C1 (configuration not stated)	0.2	-8	3	-8%	-21
COCCNC(=O)Cn1nc(C(F)(F)F)c(Cl)c1C	-0.3	-50	-2	-1%	-10
Cc1ccc(C(=O)CC(=O)c2ccccc2)cc1	0.5	nt	nt	nt	72
CCn1c(C)cc(/C=C2\NC(=O)N(CC(=O)Nc3cccc(C)c3)C2=O)c1C	-1.4	-15	8	-7%	11
Cc1ccc(C(=O)N/C(=C/c2cccnc2)C(=O)O)cc1	-7.9	-23	2	-6%	0
COC(=O)c1ccccc1N1C(=O)C2C(C1=O)C1C=CC2C12CC2 (configuration not stated)	1.1	-10	7	1%	-3
NS(=O)(=O)c1ccc(N=Nc2c(O)[nH]c3ccc(Br)cc23)cc1	0.5	nt	nt	nt	1
O=C(c1cc2sccc2n1Cc1ccc(F)cc1)N1CCN(c2nc3ccccc3s2)CC1	12	-21	5	15%	6
CCOc1ccc(NC(=O)C(C)C(Cc2ccc(C)cc2)C(=O)O)cc1 (configuration not stated)	0.8	nt	nt	nt	-12
CC1(c2nnc(Cc3ccccc3)o2)CC(c2cccc(F)c2)=NO1 (configuration not stated)	-0.1	nt	nt	nt	-14
CCOC(=O)C1=C(C)NC(=O)C(C#N)C1c1ccncc1 (configuration not stated)	-2.2	-24	9	-1%	-5
Cc1ccc(-n2c(O)c(C=Nc3ccc(S(=O)(=O)N(C)C)cc3)c(=O)[nH]c2=O)cc1	3.4	2	7	-9%	26
CN(C)c1cccc(C(=O)Nc2nc3ccccc3[nH]2)c1	-0.6	nt	nt	nt	84
COCC(=O)Nc1nc2ccccc2s1	0.2	-21	2	-6%	-11
O=C(COC(=O)c1cc(Br)ccc1O)NNC(=O)c1ccc([N+](=O)[O-])cc1	0.6	nt	nt	nt	4

Screening results from PubChem BioAssay.
